RE007 growth inh – less growth of the S. pombe RE007 Vpr strain; S. pombe RE007 Vpr strain, BacTiter-Glo ATP luminescence, 24 h; control for the full effect not named in the record; AID 651644; hit rate 0.21% among 360,000; Potency, µM (top dose mostly 92.2 µM), for the others: at the highest dose activity change, negative = less growth; active = well fitted falling curve with a large enough effect; inconclusive = small, poorly fitted or top-dose-only effect; inactive = no such curve, though single readings can be large or run the other way;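 note: % is set by controls: 0 for no effect and ±100 for the full control effect; nearly all actives have a fitted effect of over 50% in size; the assay follows cell death caused by Vpr and the record does not say whether a fall means rescue or toxicity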
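Fission yeast RE007 carrying one integrated HIV-1 vpr copy, seeded at OD 0.01 in PMG+AL medium with 23 nL pinned compound. Grown 24 h at 30 degrees; viability read by BacTiter-Glo luminescence after 5 min.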
NS1 function inh – inhibitors of influenza NS1 protein function. Potency, µM (series often up to 46.1 µM), for inactives: top-dose activity, positive = more growth. hit rate 0.4% among 270,000. S. cerevisiae slowed by influenza A NS1, growth recovery by OD600; note: actives are rising curves; nearly all actives have a fitted effect of over 50% in size
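In this qHTS, NS1 from influenza A is expressed in budding yeast, where it slows growth. Cells are switched from glucose to 2% galactose medium (pH 6.0, -URA), treated with compound, and growth recovery is read at OD600.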
Cruzain noTriton – cruzain (T. cruzi) inhibition without detergent | P25779 | purified cruzain, Z-FR-AMC fluorescence, no detergent | Potency, µM, for the others: max response, negative = inhibition, actives largely listed as inhibitors | hit rate 2.3% among 200,000 | AID 1476; active = well fitted curve in the direction sought with a large enough effect; inconclusive = small, poorly fitted or top-dose-only effect, or another doubt; inactive = no such curve, though single readings can be large; an effect the other way counts as inactive or inconclusive;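 note: plate controls were enzyme without inhibitor for no effect and buffer without enzyme for full effect; nearly all actives have a fitted effect of over 40% in size; top concentration of the series not given in the record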
Target sequence (P25779 123-467 limits assumed): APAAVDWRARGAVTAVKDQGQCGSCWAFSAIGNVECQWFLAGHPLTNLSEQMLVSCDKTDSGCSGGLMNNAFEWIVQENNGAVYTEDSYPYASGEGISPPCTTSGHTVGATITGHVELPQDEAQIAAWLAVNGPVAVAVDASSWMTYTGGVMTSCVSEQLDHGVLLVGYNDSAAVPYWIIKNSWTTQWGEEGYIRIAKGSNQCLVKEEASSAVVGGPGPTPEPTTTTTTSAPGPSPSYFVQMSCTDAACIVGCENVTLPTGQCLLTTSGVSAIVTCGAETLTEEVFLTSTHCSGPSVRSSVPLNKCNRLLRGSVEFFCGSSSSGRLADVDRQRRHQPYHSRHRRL
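Detergent-free condition (0.00005% Triton X-100) in acetate buffer pH 5.5 with DTT. 1.5 nM enzyme and compound were pre-mixed 15 min, then 2 uM Z-FR-AMC substrate added; reaction progress from fluorescence change between first and third reads (60 s).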
LASV entry inh – blocks Lassa virus binding to or entry into cells. Lassa virus pseudotype entry inhibition, cell reporter; control for the full effect not named in the record. hit rate 1.2% among 300,000. Potency, µM (top dose mostly 37.9 µM), inactives show at the highest dose activity change, negative = inhibition, most hits filed as inhibitors. AID 540256; active means well fitted inhibition curve with a large enough effect; inconclusive means small, poorly fitted or top-dose-only effect, or effect the other way; inactive means flat fitted curve, though single readings scatter; tested in HEK293 cells; note: % is set by controls: 0 for no effect and ±100 for the full control effect; nearly all actives have a fitted effect of over 50% in size; luciferase read-out
2A StopGo – lowers the luciferase signal of an FMDV 2A StopGo reporter; human cells with a luciferase reporter of 2A StopGo recoding; control for the full effect not named in the record; Potency, µM (doses to about 57.9 µM), without a hit: top-dose signal change, negative = less light; hit rate 1.2% among 410,000; AID 1159524; active = well fitted falling curve with a large enough effect; inconclusive = small, poorly fitted or top-dose-only effect; inactive = no such curve, though single readings can be large or run the other way; tested in HEK293T cells; note: % is set by controls: 0 for no effect and ±100 for the full control effect; nearly all actives have a fitted effect of over 45% in size; luciferase light after 4 h
Marburg entry inh – Marburg virus entry inhibition | Marburg virus pseudotyped entry inhibition, cell reporter; control for the full effect not named in the record; about a third of the inactives were read at about 46 µM | Potency, µM (highest dose often 37.8 µM), for inactives: top-dose activity change, negative = inhibition, hits mostly inhibitors | hit rate 1.8% among 300,000; active = well fitted inhibition curve with a large enough effect; inconclusive = small, poorly fitted or top-dose-only effect, or effect the other way; inactive = flat fitted curve, though single readings scatter; tested in HEK293 cells; about a fifth of its hits are not listed in these tables; note: % is set by controls: 0 for no effect and ±100 for the full control effect; luciferase read-out
SARS PLpro yeast – inhibitors of SARS-CoV papain-like protease in yeast | AID 485353 | S. cerevisiae expressing SARS-CoV PLpro, growth rescue; control for the full effect not named in the record | Potency, µM (highest dose often 32.9 µM), without a hit: at the highest dose activity, positive = growth rescue | hit rate 0.19% among 330,000; note: 0% is about no effect; nearly all actives have a fitted effect of over 55% in size; growth read by luminescence after 48 h
Cruzain inh Det – inhibitors of Trypanosoma cruzi cruzain with detergent | hit rate 0.43% among 200,000 | purified cruzain, Z-FR-AMC fluorescence, 0.01% Triton | Potency, µM, for the others: max response, negative = inhibition, hits mostly inhibitors; active = well fitted curve in the direction sought with a large enough effect; inconclusive = small, poorly fitted or top-dose-only effect, or another doubt; inactive = no such curve, though single readings can be large; an effect the other way counts as inactive or inconclusive;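 note: plate controls were neutral wells for no effect and buffer without enzyme for full effect; nearly all actives have a fitted effect of over 40% in size; top concentration of the series not given in the record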
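Detergent-containing run (0.01% Triton X-100) in acetate buffer pH 5.5 with 5 mM DTT: enzyme at 1.5 nM final, 15 min compound preincubation at room temperature, then 2 uM Z-FR-AMC substrate. Activity taken as 60 s fluorescence increase at 360/450 nm.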
* = called active by the depositor; ? = inconclusive; . = no result given; [ ] = another dose, or the depositor's remark. Unless noted, calls come from the whole dose curve; as a rule, active means well fitted rising curve with a large enough effect; inconclusive means small, poorly fitted or top-dose-only effect; inactive means no such curve, though single readings can be large or run the other way. Potency is the fitted concentration of half-maximal effect. This is a random part of the collection, and some 4.5% of all compounds hit somewhere here.

SMILES	RE007 growth inh	NS1 function inh	Cruzain noTriton	LASV entry inh	2A StopGo	Marburg entry inh	SARS PLpro yeast	Cruzain inh Det
CCn1c(SCC(=O)Nc2cccc(C)c2)nc2nc3c(cc2c1=O)COC(C)(C)C3	5%	0%	.	?	-27%	?	0%	.
CCOC(=O)Cc1cc(=O)[nH]c(/N=C(\N)Nc2ccc(C)c(C)c2)n1	-21%	4%	.	-11%	-29%	5%[46.1 µM]	-1%	.
CCCSc1nc2cc(C)c(C)cc2n1CC(C)O (configuration not stated)	-8%	-7%	.	8%	21%	0%[46.1 µM]	-2%	.
CS(=O)(=O)/C(C#N)=C/c1cccn1S(=O)(=O)c1ccccc1	3%	4%	.	31%	8%	?	-1%	.
CC1CCC(C(C)C)C(OCC(O)CNC(C)C)C1 (configuration not stated)	1%	6%	.	.	-8%	.	-1%	.
O=C(N/C(=C/c1ccc(F)cc1)C(=O)N1CCCC1)c1ccccc1	-24%	-26%	.	-9%[46.1 µM]	6%	-2%[46.1 µM]	0%	.
O=C(COc1cccc2ccccc12)N/N=C/c1ccc(Sc2nc3ccccc3s2)o1	2%	8%	?	-28%	-9%	-30%	-1%	2.2%
COc1ccc(Cl)cc1Nc1cc(C)nc2nc(C)nn12	4%	?	-8%	-5%	-9%	16%	-1%	1.7%
C=Cn1ccnc1P(=S)(c1nccn1C=C)c1nccn1C=C	18%	-10%	-5%	13%	0%	4%	-1%	-0.9%
O=C(/C=C\c1ccco1)Nc1ccc(N2CCN(C(=O)c3ccccc3)CC2)cc1	.	14%	-8%	-10%	-28%	?	-13%	-9.8%
Cc1cc(NC(=O)CSc2n[nH]c(-c3ccccc3Br)n2)no1	10%	.	.	26%[46.1 µM]	-3%	4%[46.1 µM]	-4%	.
COc1ccccc1CCCNC(=O)C1CCC(=O)N(Cc2ccccc2F)C1 (configuration not stated)	-6%	-6%	.	.	47%[activator]	.	3%	.
CN(C)c1ccc(C(CNS(=O)(=O)c2ccc(Cl)cc2)N2CCOCC2)cc1 (configuration not stated)	.	.	15%	-24%[46.1 µM]	-7%	.	.	-3.8%
CN1/C(=C\C=Nc2ccc3ccccc3c2)C(C)(C)c2ccccc21	.	-18%	1%	.	.	.	-32%	-16%
Cc1cc(/C=C2\Sc3ccccc3N2C)cc(C)[n+]1CC1CCCO1 (configuration not stated)	?	-43%	.	?	?	?	-5%	.
CCOc1ccc(C(=O)N2CCN(c3cnn(-c4ccccc4)c(=O)c3Cl)CC2)cc1	9%	2%	.	12%[46.1 µM]	-5%	?	-2%	.
CS(=O)(=O)Oc1ccc(/C=C2\C(=N)N3N=C(CC(=O)N4CCOCC4)SC3=NC2=O)cc1Cl	13%	?	.	.	-8%	.	5%	.
Cc1cccc(N2CCN(C(=O)C3CCN(S(=O)(=O)N4CCOCC4)CC3)CC2C)c1 (configuration not stated)	4%	.	.	-13%	?	-19%	0%	.
CCOC(=O)C1=C(C)OC(N)=C(C#N)C1c1ccc(C)s1 (configuration not stated)	-27%	.	.	.	-8%	4%[46.1 µM]	0%	.
O=C(OCN1C(=O)c2ccccc2C1=O)c1cccc(S(=O)(=O)N2CCOCC2)c1	5%	5%	.	11%	4%	3%	-1%	.
N#Cc1c(-c2cccc(Cl)c2)[nH]c(=S)[nH]c1=O	-5%	-2%	.	13%	-1%	7%	0%	.
CC(=O)Oc1ccc2c(c1)O/C(=C\c1ccncc1)C2=O	-12%	-1%	.	.	30%	.	0%	.
O=C(CSc1nc(=O)n(Cc2ccco2)c2c1CCC2)Nc1cccc(F)c1	.	.	-12%	1%[46.1 µM]	-7%	.	.	-4.8%
Cc1cc(C)c[n+](C(C)C(=O)c2ccc(Cl)cc2)c1 (configuration not stated)	-7%	5%	.	15%	-15%	-16%	-4%	.
COc1ccc(S(=O)(=O)NCc2ccccc2Cl)cc1OC	-8%	-2%	1%	0%	65%[activator]	2%	4%	5.0%
CCOC(=O)c1ccc(NC(=O)CN2C(=O)C(C)SC(C)C2=O)cc1 (configuration not stated)	9%	-5%	-6%	.	22%	.	-1%	-3.8%
Cc1ccc(C(=O)NC(=S)NNC(=O)c2ccccc2[N+](=O)[O-])cc1	23%	-10%	?	14%	-5%	17%[46.1 µM]	-21%	-0.7%
CC(C)C(=O)N1CCN(c2nc(-c3ccccc3)c3c(c2C#N)CCCC3)CC1	-1%	7%	?	?	?	?	-23%	-22%
COCCNC(=O)CCc1c(C)nc2c(c(C)nn2-c2ccc(C)cc2)c1C	8%	3%	13%	-12%[46.1 µM]	?	?	-2%	-1.3%
O=C1C2C3C=CC(CC3)C2C(=O)N1/N=C/c1c[nH]c2ccccc12 (configuration not stated)	1%	.	.	8%	60%[activator]	?	-4%	.
CC1CCc2nc3ccc(S(=O)(=O)N4CCC(C(=O)O)CC4)cc3c(C(=O)O)c2C1 (configuration not stated)	3%	19%	.	.	-16%	.	3%	.
COc1ccc(NC(=O)CC(C)NCCCN2CCCC2=O)cc1 (configuration not stated)	-13%	3%	.	.	-15%	.	1%	.
Cc1cccc(CN2C(=O)CSc3ccc(C(=O)NC4CC4)cc32)c1	7%	-6%	.	-3%[46.1 µM]	-15%	-8%[46.1 µM]	-3%	.
CCOc1ccc(OCC(=O)OCn2c(SC)nnc(C)c2=O)cc1	22%	-3%	-2%	-1%	-4%	-2%	-5%	0.3%
CCC1CCCCN1CCCNC(=O)c1sc2nc(C)cc(C)c2c1-n1cccc1 (configuration not stated)	.	.	8%	17%[46.1 µM]	-13%	20%[46.1 µM]	.	-4.0%
Cc1cc(NS(=O)(=O)c2ccc(NC(=O)C(C)Oc3ccc(C(C)C)cc3)cc2)no1 (configuration not stated)	-3%	10%	.	-18%	34%[activator]	0%[46.1 µM]	-3%	.
CCc1ccc(-n2c(=S)sc3c(=O)n(-c4ccccc4C)c(SCC(=O)O)nc32)cc1	-3%	14%	.	.	14%	.	1%	.
CC(=O)C1=C(O)CCCC1=NCc1nc2ccccc2[nH]1	-11%	.	.	?	15%	28%[46.1 µM]	1%	.
COc1ccc(/C(C)=N/NC(=O)CNC(=O)c2cccnc2)cc1OC	1%	-2%	.	-7%[46.1 µM]	0%	?	2%	.
O=C(CC(c1ccc(F)cc1)c1ccco1)Nc1nccs1 (configuration not stated)	11%	3%	.	-10%	-8%	-6%[46.1 µM]	-2%	.
O=C(Cc1cccs1)Nc1ccc(-c2nnn(CC(=O)N3CCOCC3)n2)cc1	5%	9%	-12%	7%	.	5%	16%	-11%
CCOC(=O)C1CCN(C(=O)Cc2ccc(OC)c(OC)c2)CC1	1%	9%	12%	5%	-10%	-15%	7%	5.6%
CCc1cc(-c2n[nH]c(=S)n2N)n(C)n1	12%	-6%	7%	19%	-19%	25%	0%	-0.1%
CCOC(=O)COc1c(C=O)cc(Br)cc1OC	-9%	-72%	1%	-4%	-17%	?	-5%	2.0%
CCCCn1c(=O)c(C(=O)Nc2cccc(C)c2)c(O)c2ccccc21	4%	3%	.	.	-6%	.	-2%	.
CSc1ccc(C(=S)N2CCN(C)CC2)cc1	8%	-6%	11%	-5%	.	-8%	4%	3.1%
COCCn1c(-c2ccc(Cl)cc2)cnc1SCC(=O)NCCc1ccc(OC)c(OC)c1	13%	-7%	?	?	?	?	5%	-3.4%
Cc1ccc(S(=O)(=O)N2CCC(=O)N(CCOC(=O)Nc3ccc(F)cc3)CC2)cc1	-10%	-48%	10%	-10%	?	-23%	2%	-2.0%
Cc1cc(=O)oc(C)c1C(=O)NC1CC(C)(C)NC(C)(C)C1	0%	9%	1%	7%	10%	9%	-14%	-4.0%
O=S(=O)(NCC(c1cccs1)S(=O)(=O)c1ccccc1)c1ccc(F)c(C(F)(F)F)c1 (configuration not stated)	.	.	-4%	11%[46.1 µM]	64%[activator]	.	.	-9.3%
O=C(CN1CCOCC1)NNC(=S)Nc1ccc(Cl)cc1	-10%	.	.	11%	-3%	0%[46.1 µM]	0%	.
Cc1ccc(CN(C(=O)c2c(F)cccc2F)C2CC(C)(C)NC(C)(C)C2)o1	2%	-3%	-1%	-14%[14.3 µM]	4%	-12%	-1%	1.9%
NNC(=O)CCN1CCN(Cc2ccccc2)CC1	26%	6%	.	4%	1%	?	0%	.
CCNC(=O)Nc1ccccc1C(=O)OC	10%	6%	.	2%[46.1 µM]	-15%	6%[46.1 µM]	-1%	.
Cc1cc(Cl)c(S(=O)(=O)NCc2cccnc2)cc1OCC(=O)NC1CCCCC1	-2%[3.69 µM]	9%	-5%	-12%	-12%	19%	-1%	0.0%
CCOC(=O)c1ccc(NC(=O)c2ccc3c(c2)CCN3S(=O)(=O)c2ccc(Cl)cc2)cc1	.	.	-26%	?	?	?	.	-2.1%
O=c1c2ccccc2nc(/C=C/c2ccccc2)n1CCCO	3%	-7%	.	.	2%	0%	0%	.
Fc1cccc(CNCc2ccc3c(c2)OCO3)c1	2%	-11%	.	.	-12%	.	2%	.
Cc1ccc(NC(=O)CSc2nc3c(c(=O)[nH]2)CN(Cc2ccc4c(c2)OCO4)CC3)cc1C	.	.	-9%	13%[46.1 µM]	-8%	-4%[46.1 µM]	.	-1.9%
CS(=O)(=O)c1ccccc1-c1nnc(NC(=O)c2ccc(S(=O)(=O)N3CCCC3)cc2)o1	-10%	.	.	3%	-10%	12%	0%	.
CC#CC(=O)N1CCC(CCc2ccccc2)(C(=O)OCC)CC1	12%	-2%	.	0%[46.1 µM]	-6%	8%[46.1 µM]	-3%	.
Cc1c(C(=O)Nc2nccs2)sc2nc(-c3cccs3)cc(C(F)(F)F)c12	-1%	9%	?	-25%	-21%	?	2%	-8.7%
Cc1nn(C(=O)c2cc([N+](=O)[O-])ccc2Cl)c(C)c1Br	-5%	0%	.	.	3%	.	0%	.

Assay outcomes from PubChem BioAssay.
